Hsc70 = Hsc70 inhibitors, probe displacement, primary screen, biochemical, fluorescence polarization (AID 568). Hsc70 fluorescence polarization, probe displacement; higher % means a stronger effect; strong numbers were not always called active. displacement, % at 20 µM; hits with a dose series show IC50 in µM. 83,000 tested, under 10 active;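 active means displacement above 50% without optical interference and an IC50 on retest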;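 further: ATPase domain with a fluorescein-tagged ATP probe; 0% = vehicle and 100% = excess ADP; read after one hour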
WNV protease inh = blocks West Nile virus NS2B-NS3 protease activity. P06935. WNV NS2B-NS3 protease, fluorogenic substrate Ex360/Em465; stronger effect = lower value. z-score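 (tested at a level between 10 and 100 µM)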. 0.18% of 65,000 active;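 active means z-score at -3 or under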;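 further: score is relative to mean and spread of the compound wells of a plate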
Target sequence (P06935 1371-1501 limits assumed): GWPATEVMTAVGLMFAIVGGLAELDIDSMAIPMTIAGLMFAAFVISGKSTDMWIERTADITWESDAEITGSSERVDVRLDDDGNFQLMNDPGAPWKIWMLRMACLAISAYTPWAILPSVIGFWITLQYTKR
Target sequence (P06935 1502-1679 limits assumed): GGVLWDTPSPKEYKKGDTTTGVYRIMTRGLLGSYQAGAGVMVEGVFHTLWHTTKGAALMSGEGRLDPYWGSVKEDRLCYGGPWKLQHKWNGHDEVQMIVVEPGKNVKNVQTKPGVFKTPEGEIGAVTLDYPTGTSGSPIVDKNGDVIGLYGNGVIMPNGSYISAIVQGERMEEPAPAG
MT1-MMP reporter = inhibitors of MT1-MMP promoter transcription, cell-based, luciferase reporter, luminescence (AID 618); MT1-MMP promoter luciferase reporter cells, luminescence; calls from a first round at 10 µM; hits with a dose series show EC50 in µM; 0.62% of 87,000 active;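 active means over half of the reporter light lost at 10 µM or EC50 under 50 µM; inactive means the rest and hits that failed the dose series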;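 further: actives suppress MT1-MMP promoter-driven transcription so potencies describe inhibitors; HT1080 fibrosarcoma cells; overnight exposure; toxic or luciferase-blocking compounds were not removed from the actives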
Active calls of the source: *; i = inactive; x = not tested or not shown.

smiles	Hsc70	WNV protease inh	MT1-MMP reporter
O=C(C1CCN(S(=O)(=O)c2cnc[nH]2)CC1)N1CCc2ccccc2C1	-2.2%	-0.25	i
CCOc1ccc(-c2noc(-c3cccnc3)n2)cc1OC	3.2%	0.57	i
O=C(NCCCN1CCCC1=O)c1csc2ccccc12	1.9%	-0.89	i
COc1cccc(NC(=O)CSc2nnc(CN3CCOCC3)n2C)c1	-0.5%	x	i
CN(C)CC1(c2ccccc2)CCCC1	-0.8%	1.55	i
COc1ccc(NC(=O)c2nc[nH]c2C(=O)Nc2ccccc2C)cc1	0.5%	0.6	i
CCCNc1nc(NCC)nc(OC)n1	2.6%	x	i
CCOC(=O)N1CCN(c2nc3ccccc3nc2C(C#N)C(=O)NCCc2ccccc2)CC1 (stereo not given)	-134.2%	1.1	i
CC1Cc2ccccc2N1Cc1cc(=O)n2ccsc2n1 (stereo not given)	3.4%	-0.49	i
COc1ccc(C(C(=O)NC(C)(C)C)N(Cc2cccs2)C(=O)CCC(=O)Nc2cc(C)on2)cc1 (stereo not given)	-0.2%	x	i
COc1ccc(CCNC(=O)C(=O)N2CCCCC2)cc1OC	-0.8%	x	i
CCOC(=O)C1Cc2ccccc2CN1 (stereo not given)	-5.1%	-1.28	i
CCCn1c(NCc2ccco2)nc2c1c(=O)n(C)c(=O)n2C	-4.1%	x	i
CCCCn1nc(NC(=O)c2cccs2)c2cc3cc(OC)ccc3nc21	-4.0%	-0.28	i
O=C(NCc1ccccn1)C1COc2ccccc2O1 (stereo not given)	2.0%	-0.14	i

Additional results:
smiles	Hsc70	WNV protease inh	MT1-MMP reporter
CC(=O)c1c(C)oc(C)c1CSCc1ccc(C(=O)O)o1	-1.1%	-0.02	i
CCN(CC)CC(=O)c1c[nH]c2ccc(C)cc12	-5.1%	0.49	i
Cc1ccccc1OCC(O)Cn1c(NCc2ccco2)nc2c1c(=O)[nH]c(=O)n2C (stereo not given)	0.0%	-0.65	i
COc1ccc(C2CC(=O)n3c(nc4ccccc43)S2)cc1OC (stereo not given)	5.5%	x	i
Cn1c(SCC(=O)NCc2ccco2)nnc1-c1c[nH]c2ccccc12	3.2%	-0.52	i
N#Cc1cc2c(nc1SCC(=O)Nc1sc3c(c1C#N)CCC3)CCCCCC2	-0.4%	x	i
CCC(=O)N(Cc1cc2cccc(C)c2[nH]c1=O)c1ccccc1OC	2.5%	-1.74	i
CCOC(=O)c1cn(CC(=O)Nc2ccc3c(c2)OCCO3)nn1	1.7%	-0.33	i
COc1ccc(-n2c(SCc3ccc(C#N)cc3)nnc2-c2ccccn2)cc1	9.2%	-0.35	i
CCOC(=O)c1c(NC(=O)c2nn(CC)cc2Br)sc(C)c1C	18.5%	0.76	i
COCCNC(=O)C(c1cccs1)N(CCc1ccccc1)C(=O)Cn1nnc2ccccc21 (stereo not given)	6.2%	1.18	i
O=C(CSc1nnc(-c2c[nH]c3ccccc23)n1-c1ccc(F)cc1)NCc1ccco1	-4.6%	1.95	i
COc1ccc(CN2CCOCC2)cc1Br	7.8%	0.04	i
COc1ccc(-c2csc(Nc3cccnc3)n2)cc1OC	-4.3%	x	i
CC(Oc1ccc(Cl)cc1Cl)c1nc(-c2ccc(NC(=O)c3ccncc3)cc2)no1 (stereo not given)	-0.7%	x	i

Continuation:
smiles	Hsc70	WNV protease inh	MT1-MMP reporter
CCOC(=O)c1ccc(NC(=O)N2CCCCC2)cc1	-4.5%	x	i
CCC(CC)C(=O)NCCNC(=O)C(CC)CC	6.4%	-0.41	i
N#Cc1c(N2C(=O)C3C4C=CC(C4)C3C2=O)sc2c1CCC2 (stereo not given)	0.5%	-0.44	i
Cc1cc(C(=O)N2CCN(S(C)(=O)=O)CC2)cs1	8.7%	-1.11	i
COc1cc(C(=O)NCC2CCCO2)cc(OC)c1OC (stereo not given)	-0.2%	x	i
CC1=Nn2c(nnc2-c2ccc(F)cc2)SC1	-3.2%	-0.39	i
O=C(C1CCN(S(=O)(=O)c2cnc[nH]2)CC1)N1CCN(Cc2ccc3c(c2)OCO3)CC1	-1.2%	0.58	i
Cc1ccc(C2N(c3ccc(F)cc3)C(=O)C3CCCN32)cc1 (stereo not given)	-5.8%	0.07	i
O=c1oc2ccccc2cc1-c1nc(-c2cccs2)cs1	116.0%	x	i
Fc1ccccc1N1CCN(CCCNc2ccc3nncn3n2)CC1	-1.0%	-0.24	i
CN1C(=O)NC(NC(=O)C2CCCCC2)(C(F)(F)F)C1=O (stereo not given)	-2.5%	-0.61	i
O=C(CSc1nnc(-c2c[nH]c3ccccc23)o1)N1CCCCC1	-5.7%	1.77	i
CCC(=O)Nc1cccc(NC(C)=O)c1	0.7%	x	i
CC(C)(C)C(=O)NC1CCN(S(=O)(=O)c2ccc(C(F)(F)F)cc2)CC1	4.7%	x	i
CC(=O)c1cnc(Nc2nc(C)c3ccc(C)cc3n2)nc1C	-3.5%	-0.88	i

Other entries.
smiles	Hsc70	WNV protease inh	MT1-MMP reporter
CC(=O)CCc1c(C)[nH]c2ccc(NC(C)=O)cc2c1=O	4.1%	-0.73	i
COc1cc(OC)cc(C(=O)Nc2ccc(S(=O)(=O)Nc3cc(C)nc(C)n3)cc2)c1	-3.2%	x	i
CCN(CC)C(=O)Oc1ccccc1NC(C)=O	3.1%	-0.91	i
Cc1ccc(S(=O)(=O)Cn2cnnn2)cc1	-0.9%	-1.01	i
Nc1cccc(C(=O)Nc2ccc(N)cc2Cl)c1	-0.7%	-0.72	i
CCCCN(CC)CCNS(=O)(=O)c1ccc2c(c1)oc(=O)n2C	-3.7%	1.31	i
O=C(c1ccco1)N1CCN(C(=O)c2ccc(COc3ccc(Cl)cc3Cl)o2)CC1	1.3%	x	i
CC(C)(C)c1cc(CN2CCOCC2)c(C(=O)O)o1	4.2%	0.69	i
COc1ccc(-c2nnc(SCC(=O)NC(=O)NCc3ccco3)o2)cc1	-1.3%	0.06	i
COc1ccc(C2NC3=C(CCC3)C3(C#N)C4(N=C(N)C23C#N)OCCO4)cc1 (stereo not given)	3.2%	0.02	i
Cc1cc(=O)oc2cc(NC(=O)C3CC(=O)N(Cc4ccccc4)C3)ccc12 (stereo not given)	3.2%	x	i
COc1ccc(-c2cnc(SCC(=O)Nc3cc(C)on3)n2Cc2ccco2)cc1	0.5%	0.75	i
C1CCN(c2nc(N3CCCCC3)nc(N3CCNCC3)n2)CC1	-2.7%	-0.49	i
CS(=O)(=O)N1CCCC(C(=O)NCCc2ccc(Cl)cc2)C1 (stereo not given)	-6.0%	-0.57	i
O=C(O)Cn1c(SC2CCCCC2)nc2ccccc21	-0.7%	2.57	i

Quoted from the listing:
For WNV protease inh, C1CCN(c2nc(N3CCCCC3)nc(N3CCNCC3)n2)CC1 reads -0.49
For WNV protease inh, CCN(CC)C(=O)Oc1ccccc1NC(C)=O reads -0.91
For WNV protease inh, Nc1cccc(C(=O)Nc2ccc(N)cc2Cl)c1 reads -0.72
For Hsc70, CC(C)(C)c1cc(CN2CCOCC2)c(C(=O)O)o1 reads 4.2%

More entries.
smiles	Hsc70	WNV protease inh	MT1-MMP reporter
CN(CC(=O)Nc1ccc2c(c1)OCCO2)S(=O)(=O)c1cccc2cccnc12	-5.3%	-0.72	i
COC(=O)CSc1n[nH]c(-c2ccncc2)n1	10.0%	-1.13	i
CC1(C)CC2CC(C)(CN2C(=O)c2cc(-c3ccccc3O)on2)C1 (stereo not given)	-1.2%	-0.55	i
COCCn1c(COc2ccc(OC)cc2)nc2ccccc21	0.1%	-0.78	i
Cc1ccc(S(=O)(=O)Nc2nc3ccccc3nc2N2CCN(c3ccccc3F)CC2)cc1	1.7%	x	i
O=C(Nc1ccc2c(c1)OCO2)c1ccc(Br)c(S(=O)(=O)N2CCCC2)c1	-5.5%	-0.36	i
CC(=O)c1ccc(NC(=O)C2CCCN2S(=O)(=O)c2ccc(C)cc2)cc1 (stereo not given)	2.9%	1.48	i
COc1cc(-c2nnn(CC(=O)NC3CCS(=O)(=O)C3)n2)ccc1OCc1ccccc1 (stereo not given)	-7.8%	0.43	i
Cc1c(C(=O)O)oc2ccc(S(=O)(=O)N3CCC(C)CC3)cc12	-4.0%	0.92	i
COC(=O)c1cc(Br)c(=O)n(Cc2ccc(OC)c(OC)c2)c1	3.9%	1.34	i
CN(C)S(=O)(=O)c1cccc(C(=O)N2CCN(Cc3ccccc3)CC2)c1	-1.3%	-0.85	i
COc1ccc(OC)c(NS(=O)(=O)c2cc(OC)ccc2OC)c1	2.4%	-1.46	i
CCN(CC)S(=O)(=O)c1ccc2nc(COC(=O)c3n[nH]c4ccccc34)[nH]c2c1	-18.6%	0.73	i
O=C(O)c1ccc(-n2cccc2)cc1O	4.7%	-0.34	i
c1ccc(Cc2nn3c(Cn4cnc5ccccc54)nnc3s2)cc1	-4.8%	-0.00523	i

Exported with values under each structure: entries from further up.
Sequence of screens: Hsc70 | WNV protease inh | MT1-MMP reporter
COc1ccc(OC)c(NS(=O)(=O)c2cc(OC)ccc2OC)c1
 : 2.4% | -1.46 | i
O=C(O)c1ccc(-n2cccc2)cc1O
 : 4.7% | -0.34 | i
CC(=O)c1ccc(NC(=O)C2CCCN2S(=O)(=O)c2ccc(C)cc2)cc1 (stereo not given)
 : 2.9% | 1.48 | i
CN(CC(=O)Nc1ccc2c(c1)OCCO2)S(=O)(=O)c1cccc2cccnc12
 : -5.3% | -0.72 | i
Cc1c(C(=O)O)oc2ccc(S(=O)(=O)N3CCC(C)CC3)cc12
 : -4.0% | 0.92 | i

(cont.)
smiles	Hsc70	WNV protease inh	MT1-MMP reporter
CN(C)c1ccc(C(c2nnnn2C(C)(C)C)N2CCc3ccccc3C2)cc1 (stereo not given)	-4.9%	-0.69	i
COc1ccc(N(CC(=O)NC2CCCC2)C(=O)Cn2nnc(-c3ccc(C)cc3)n2)cc1OC	-3.7%	-1.59	i
O=C1CC(c2ccccc2)C(C(=O)Nc2ccccc2F)N1 (stereo not given)	1.6%	1.38	i
O=C(C1CCN(C2CC(=O)N(c3ccc(F)cc3)C2=O)CC1)N1CCOCC1 (stereo not given)	8.5%	0.38	i
CCN(c1cccc(C)c1)c1ncnc2nc[nH]c12	1.9%	2.13	i
COc1ccc(C(=O)Nc2cccc(C(=O)N3CCCC3)c2)cc1	-3.9%	-0.05	i
COC(=O)c1c(NC(=O)C(C)C)sc2c1C(C(=O)OC)CC2 (stereo not given)	2.3%	x	i
Cc1nc2ccccn2c1C(=O)NCc1ccc2c(c1)OCO2	-0.2%	1.5	i
Cc1nc(NCCc2cnc[nH]2)c2oc3ccccc3c2n1	2.3%	-0.01	i
Cc1ccc(NC(=O)C2C(C(=O)O)C3C=CC2C32CC2)cc1 (stereo not given)	-1.1%	x	i
CCOc1ccccc1NC(=O)c1nc[nH]c1C(=O)Nc1ccccc1OCC	-6.4%	-0.19	i
CCOC(=O)c1cc2sccc2n1Cc1ccccc1	-2.0%	0.15	i
O=C1/C(=C\c2ccc(-c3ccccc3[N+](=O)[O-])o2)C(c2ccccc2)=NN1c1ccccc1	-2.8%	x	i
CC(C)(/C=N/O)/[N+]([O-])=C/c1ccco1	0.8%	-0.07	i
CCOc1cc(N2CCOCC2)c(OCC)cc1NC(=O)Cc1cccc(OC)c1	1.2%	x	i

The list goes on:
smiles	Hsc70	WNV protease inh	MT1-MMP reporter
CCOc1ccc(-c2nn[nH]n2)cc1	1.0%	-2.12	i
CCCOc1ccc(-c2nn(-c3ccccc3)cc2/C=C2\SC(=S)N(C3CCS(=O)(=O)C3)C2=O)cc1 (stereo not given)	16.1%	x	i
COc1cc(Cn2c(-c3nonc3N)nc3ccccc32)ccc1C	1.8%	0.18	i
COCCn1c(-c2ccccc2F)n[nH]c1=S	-2.5%	0.97	i
COCCn1nnnc1C(c1cc2cc(C)ccc2[nH]c1=O)N1CCc2ccccc21 (stereo not given)	3.2%	x	i
Cc1ccc2oc3c(c(=O)c2c1)C(c1cccc(O)c1)N(c1ccccn1)C3=O (stereo not given)	0.7%	0.02	i
c1ccc(Nc2nc(-c3cccnc3)cs2)nc1	0.5%	1.83	i
COc1ccc(N=c2scc(-c3ccc(S(=O)(=O)N4CCOCC4)cc3)n2CCCO)cc1	-6.6%	0.56	i
COc1ccc(NC(=O)c2cnn3c(C(F)(F)F)cc(-c4ccco4)nc23)cc1OC	5.8%	-0.49	i
CN(c1ncc(C(F)(F)F)cc1Cl)n1cc(C(N)=O)c2ccccc2c1=O	2.7%	x	i
CSc1nc(N)nc(SCC(=O)OC(C)C)c1C#N	-6.3%	-0.25	i
COc1ccc(CC(=O)NCc2ccc3c(c2)OCO3)cc1	0.3%	x	i
O=C1Nc2ccc(S(=O)(=O)N3CCOCC3)c3cccc1c23	-6.3%	0.1	i
Cc1csc(NC(=O)c2cc3c(s2)CCCCC3)n1	1.7%	x	i
Cc1cccc(OCCCC(=O)Nc2ccc(S(=O)(=O)Nc3onc(C)c3C)cc2)c1C	-1.8%	0.14	i

Next part
smiles	Hsc70	WNV protease inh	MT1-MMP reporter
Cc1ccc(NC(=O)CCCC(=O)O)c(Br)c1	-9.4%	0.65	i
Cc1cc(C)n2nc(CC(=O)NC3CCCCCC3)nc2n1	-1.3%	-0.42	i
O=C(Nc1ccccc1C(F)(F)F)N1CCC(n2c(=O)[nH]c3ccccc32)CC1	-2.3%	-0.6	i
CCN1C2=C(C(=O)CCC2)C(c2ccc(O)c(Br)c2)C2=C1CCCC2=O	31.5%	0.76	i
O=C(CCN1CCCCCC1)c1ccccc1	-0.8%	x	i

Assay outcomes from PubChem BioAssay.

These rows are one share of the data; the hit share may differ from the screen's.
